# Yeast UUG start – modulators of yeast start codon fidelity, primary screen, whole organism, S. cerevisiae, single point, plate reader; S. cerevisiae UUG-firefly luciferase reporter, luminescence/redox ratio; activity score, % at 18.7 µM; actives 0.13% (n = 350,000); AID 602363, 2012;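 active means replicate mean at a twofold rise or more, about +100% in these data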;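 further: firefly luciferase made from a UUG start codon reports start codon fidelity; reporter light over untreated wells divided by growth signal over untreated wells; some hits fall short of that in this replicate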
# HIV Env fusion – inhibitors of HIV-1 Env-driven cell-cell fusion, primary screen, HeLa-JRFL effector, CEM21 target cells, luciferase. inhibition, % at 12.3 µM. actives 1.1% (n = 360,000). AID 651610, 2012;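 active means mean replicate inhibition score of at least 50 and every replicate individually at or above 50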;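 further: 0% = plate neutral controls and 100% = maraviroc near 300 nM; one replicate is shown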
# MT1-MMP act inh – blockers of MT1-MMP proenzyme processing, primary screen, HT1080 RFP-PRO-GFP cells, GFP/RFP fluorescence; Matrix metalloproteinase-14 (Homo sapiens), P50281; AID 651647, 2012; actives 0.061% (n = 360,000); GFP/RFP ratio fluorescence, overnight; percent of plate control window, DMSO zero; GFP/RFP ratio change, % at 20 µM;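 active means GFP/RFP ratio change of at least 30% with cell ATP level not reduced by more than half and red fluorescence within 50% of control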; further: strong numbers were not always called active
#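 Assay system – RFP-PRO-GFP reporter HT1080 cells · Compound dosing – single dose of 20 µM compound, 1% DMSO final · Incubation – overnight compound exposure at 37 °C · Measure – GFP/RFP fluorescence ratio · Benchmarks – DMSO wells and RFP-L50D-GFP cells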
# MT1-MMP act inh RFP – second read-out of MT1-MMP act inh, no call of its own (marks repeat the call); RFP signal change, %; measured here: RFP expression control read;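 0 = vehicle wells; hits needed this value within 50% of zero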
# An asterisk follows results filed as active; nt = no result given; & = joins results of further samples; [ ] = another dose, or the depositor's remark.
Molecule	Yeast UUG start	HIV Env fusion	MT1-MMP act inh	MT1-MMP act inh RFP
Cc1noc(C)c1S(=O)(=O)N(C)C[C@@H]1OCCCC[C@H](C)Oc2ccc(NC(=O)c3ccccc3)cc2C(=O)N([C@H](C)CO)C[C@@H]1C	-5.6	-205.0[16.7 µM]	nt	nt
CCC(=O)Nc1ccc2c(c1)OC[C@H](C)N(CCC(F)(F)F)C[C@@H](C)[C@H](OC)CN(C)C2=O	-2.6	3.2[16.7 µM]	nt	nt
CC(C)NC(=O)N(C)C[C@@H]1OCCCC[C@H](C)Oc2ccc(NS(=O)(=O)c3ccc(F)cc3)cc2C(=O)N([C@H](C)CO)C[C@@H]1C	-7.2	-78.1[16.7 µM]	nt	nt
C[C@H](CO)N1C[C@H](C)[C@@H](CN(C)C(=O)c2ccccn2)Oc2ncc(C#Cc3ccccc3)cc2C1=O	3.0	15.8[16.7 µM]	nt	nt
C[C@@H]1CCCCO[C@@H](CN(C)C(=O)C2CCCCC2)[C@H](C)CN([C@@H](C)CO)C(=O)c2cc(NS(C)(=O)=O)ccc2O1	3.6	2.9[16.7 µM]	nt	nt
COc1ccc(S(=O)(=O)N[C@@H]2C=C[C@@H](CC(=O)N3CCC(Cc4ccccc4)CC3)O[C@H]2CO)cc1	9.0	0.9[16.7 µM]	nt	nt
C[C@H]1CN([C@@H](C)CO)C(=O)Cc2cc(NS(=O)(=O)c3cn(C)cn3)ccc2O[C@@H]1CN(C)C(=O)Nc1ccccc1	-22.3	-9.7[16.7 µM]	nt	nt
C[C@H]1CN([C@@H](C)CO)C(=O)c2cccc(NC(=O)c3ccncc3)c2O[C@H]1CN(C)Cc1ccc2c(c1)OCO2	-1.7	14.0[16.7 µM]	nt	nt
Cc1ccc(S(=O)(=O)N(C)C[C@@H]2Oc3ccc(NC(=O)Cc4ccccc4)cc3CC(=O)N([C@H](C)CO)C[C@@H]2C)cc1	0.5	77.0*[16.7 µM]	nt	nt
CC(C)CC#Cc1ccc2c(c1)O[C@@H](CN(C)C(=O)NC(C)C)[C@H](C)CN([C@H](C)CO)S2(=O)=O	12.8	33.6[16.7 µM]	nt	nt
C[C@H](CO)N1C[C@H](C)[C@@H](CN(C)C(=O)Cc2ccccc2)OCCCC[C@H](C)Oc2ccc(NC(=O)c3ccncc3)cc2C1=O	16.8	-12.5[16.7 µM]	nt	nt
COCCN(C(=O)c1ccc(C)o1)c1c(N)n(CC(C)C)c(=O)[nH]c1=O	-9.2	nt	8.1	2.4
Cn1cc(S(=O)(=O)N2CCOCC2)cc1C(=O)O	-12.2	nt	-2.4	-1.4
Cc1ccc(S(=O)(=O)N2C[C@H]3C(=O)C[C@@H](c4ccc(Cl)cc4)N(S(=O)(=O)c4ccc(C)cc4)[C@H]3C[C@H]2c2ccc(Cl)cc2)cc1	-14.2	nt	2.3	4.1
CCN(CC)c1ccc(S(=O)(=O)N2CCOCC2)cc1NC(=O)COC(=O)/C=C/c1ccc(O)c(OC)c1	-0.9	nt	-2.5	-2.7
COc1ccc(NC(=O)C2(C)CCN2C(=O)Cc2ccccc2)cc1OC (configuration not stated)	-10.6	nt	1.4	1.8
COc1cccc(NC(=O)c2cc(-c3ccccn3)nc3ccccc23)c1	-20.7	nt	-7.1	-0.3
Cc1ccc(OCC(=O)N2CCC(C)CC2)c([N+](=O)[O-])n1	-10.7	nt	-0.8	2.4
O=S(=O)(Nc1cc(Cl)ccc1-n1cncn1)c1ccc(F)cc1	-13.0	nt	0.4	-1.2
COc1cccc(CN(C)C(=O)COc2cccc3c2OC(C)(C)C3)c1OC	12.6	nt	3.0	-0.1
CCOC(=O)C1=CCN(S(=O)(=O)c2ccccc2C)C1c1ccccc1 (configuration not stated)	9.2	nt	1.4	0.9
CCOC(=O)C1=C[C@@H](C)N(S(=O)(=O)c2ccc(C)cc2)[C@H]1c1ccccc1	1.8	nt	6.9	-1.6
O=C(CN1CCN(C(=O)c2ccc(-c3nc4ccccc4s3)o2)CC1)Nc1ccccc1Cl	-22.5	nt	1.9	-9.7
O=C(Cn1cc(C(=O)C(=O)N2CCOCC2)c2ccccc21)Nc1cccc(C(F)(F)F)c1	-1.1	nt	4.0	-5.8
CC(Oc1ccccc1)C(=O)Nc1nc(-c2ccncc2)cs1 (configuration not stated)	-44.0	nt	0.6	-4.9
CC(C)C[C@H]1CNC(=S)N1CC1CCCN1C[C@H](Cc1ccc(O)cc1)N1C[C@H](Cc2ccccc2)N(CC2CCCCC2)C1=S (some centres not stated)	-15.0	nt	-11.0	-14.1
CC(C)c1ccc(N(CC(=O)NCCCN2CCOCC2)S(=O)(=O)c2ccccc2)cc1	-0.9	nt	-4.6	-1.1
COc1ccc(-c2nn(-c3ccccc3)cc2C(=O)NC2CC2)cc1	4.0	nt	-0.6	1.7
CCCNC(=O)C1(C)CCCN(Cc2ccc(-c3ccccc3)o2)C1 (configuration not stated)	0.7	nt	-4.8	-4.7
O=S(=O)(NC1=NCCCCC1)c1ccc(Cl)cc1Cl	-19.3	nt	-0.8	1.2
CCCSc1ccc([C@@H]2[C@H]3C(=O)N(C)C(=O)[C@H]3[C@]3(C(=O)OC)CCCN23)cc1OC	-3.9	nt	1.2	1.0
C[C@@H]1[C@H](c2ccccc2)Oc2ccc(Cl)cc2S(=O)(=O)N1CC1CCCN1C(=O)OC(C)(C)C (some centres not stated)	1.5	nt	-20.3	-21.6
COCCNCc1cc(C)n(-c2cc(S(=O)(=O)N3CCOCC3)ccc2N2CCCC2)c1C	-8.3	nt	1.7	5.9
COc1ccc(OC)c(NC(=O)CN2C(=O)NC(C)(c3ccc4c(c3)OCCO4)C2=O)c1 (configuration not stated)	-0.3	nt	-1.1	0.9
Cc1cc(C(=O)NNC(=O)/C=C/c2ccco2)c(C)o1	12.0	nt	-6.1	7.0
CNc1snc(C)c1C(=O)OCC(=O)Nc1ccc(C)cc1F	-3.9	nt	-6.4	-19.1
Cc1csc(NC(=O)C2(C)CCN2C(=O)C(C)C)c1C#N (configuration not stated)	-18.0	nt	-2.0	-0.7
CC1(C(=O)NS(=O)(=O)c2cccc(C#N)c2)CCN1C(=O)CC1CCCC1 (configuration not stated)	-21.9	nt	-1.1	3.2
c1ccc(COc2ncnc3c2ncn3CCCNC2CCN(Cc3ccccc3)CC2)cc1	-6.1	nt	6.2	0.3
COc1cc(NC(=O)CN2C(=O)c3ccccc3S2(=O)=O)cc(OC)c1	-6.3	nt	-1.8	2.0

# Single records, as listed above.
# CC1(C(=O)NS(=O)(=O)c2cccc(C#N)c2)CCN1C(=O)CC1CCCC1 (configuration not stated) reads Yeast UUG start: -21.9; HIV Env fusion: nt; MT1-MMP act inh: -1.1; MT1-MMP act inh RFP: 3.2
# O=C(Cn1cc(C(=O)C(=O)N2CCOCC2)c2ccccc21)Nc1cccc(C(F)(F)F)c1 reads Yeast UUG start: -1.1; HIV Env fusion: nt; MT1-MMP act inh: 4.0; MT1-MMP act inh RFP: -5.8

# Next part:
Molecule	Yeast UUG start	HIV Env fusion	MT1-MMP act inh	MT1-MMP act inh RFP
CCCCN(C(=O)c1cccc(S(=O)(=O)N(CC)c2ccccc2)c1)c1c(N)n(CC(C)C)c(=O)[nH]c1=O	-7.3	nt	-5.3	-2.0
O=C(CNC(=O)c1ccc(OC(F)F)cc1)NCC1(N2CCOCC2)CCCCC1	-14.5	nt	2.0	0.6
O=C(NC(c1ccc(-c2ccccc2)cc1)c1cnccn1)C1CCN(Cc2cccc(C(F)(F)F)c2)CC1 (configuration not stated)	-15.7	nt	-1.4	-8.2
CCCCC(CC)C(=O)O (configuration not stated)	-20.1	nt	0.0	0.6
Cc1ccc(S(=O)(=O)NCC(=O)NCC(=O)N(C)Cc2ccc(Br)s2)cc1C	7.3	nt	3.5	-8.3
NC(=O)c1ccc(-c2nnn(CC(=O)N(C3CCCC3)C3CCS(=O)(=O)C3)n2)cc1 (configuration not stated)	-6.4	nt	-4.9	1.1
CCOC(=O)C1Oc2ccccc2C(c2ccoc2)=C1C(=O)OC (configuration not stated)	-4.9	nt	-3.3	2.0
COc1cc(SC)ccc1C(=O)N1CCN(S(=O)(=O)/C=C/c2ccccc2)CC1	2.3	nt	7.8	-4.0
CCOC(=O)c1c(NC(=O)COC(=O)c2cccnc2OCC)sc(C(=O)N(CC)CC)c1C	-11.5	nt	12.4	-29.9
CC(CNC(=O)CN1C(=O)NC2(CCCCC2)C1=O)c1ccccc1 (configuration not stated)	4.3	nt	-4.8	2.9
CCOC(=O)C1(C#N)Cc2ccccc2C1	-9.0	nt	0.7	-3.0
O=C1c2ccccc2C(=O)N1c1ccccc1	-20.7	nt	6.3	8.7
CC1CC(C)CN(C(=O)COC(=O)COc2ccccc2C#N)C1 (configuration not stated)	10.8	nt	-0.8	4.1
COc1ccc(OC)c(NC(=O)COc2cc(O)c3c(c2)OC(C)(C)CC3=O)c1	-21.0	nt	-0.5	-14.0
COc1cc(/C=C/C(=O)c2ccc3c(c2)OCO3)cc(OC)c1OC	-6.1	nt	3.7	-9.5
CC(=O)Nc1cccc(C(=O)N2CCN(S(=O)(=O)c3ccc(C4CCCCC4)cc3)CC2)c1	-5.3	nt	3.5	-13.1
CN(Cc1ccc(Cl)cc1Cl)C(=O)CCNC(=O)c1ccco1	-4.5	nt	-1.0	0.4
COCCCN1C(=O)c2ccc(C(=O)OCC(=O)NCc3cccc(OC)c3)cc2C1=O	-7.7	nt	-6.3	0.3
Cc1cc(Br)ccc1NC(=O)CN(C)C(=O)C1CCN(C(=O)c2ccc(Cl)cc2)CC1	-19.1	nt	9.5	-0.8
COc1cc(NC(=O)CCCN2C(=O)NC(C)(C)C2=O)cc(OC)c1	-12.7	nt	-1.7	1.9
CCC(CC)CN1CCC(CN2C(=O)C(=O)NC[C@@H]2CC(C)C)CC1	-14.2	nt	2.8	5.4
O=C(NCc1ccccc1Cl)c1ccc2nc([C@@H]3O[C@H](CO)[C@H](O)[C@H](O)[C@H]3O)[nH]c2c1	-7.4	nt	1.0	4.7
O=C(Nc1ccn(CCCN2CCC(N3CCOCC3)CC2)c(=O)n1)OCc1ccccc1	-8.2	nt	2.9	5.0
C=C[C@](C)(CC[C@@]1(C)C(C)CC(OC2OC(C)C(OC3OC(COC(C)=O)C(O)C(O)C3O)C(O)C2O)[C@@]2(C)C(C)=CCCC12)OC1OC(C)C(O[C@@H]2O[C@@H](C)C(O)C(O)[C@H]2O)C(O)C1O (some centres not stated)	7.7	nt	-0.9	1.5
Cc1ccc(NC(=O)c2ccc(S(=O)(=O)N(C)c3ccccc3)cc2)cc1S(=O)(=O)N1CCOCC1	-8.5	nt	2.1	-8.7
CC(=O)O[C@H]1[C@H](O)[C@H](Oc2c(O)c(C)c3c4c2[C@@H](C)CC[C@@H]4[C@@H](C)C[C@H]3C=C(C)C)O[C@@H](C)[C@H]1O	-10.9	nt	1.7	-0.4
CCN(CC)C(=O)c1cccc(NC(=O)c2cc(-c3ccccn3)nc3ccccc23)c1	-39.7	nt	2.7	0.9
O=C(CC1SC(N2CCCCC2)=NC1=O)Nc1cccc(C(=O)N2CCCC(C(F)(F)F)C2)c1 (configuration not stated)	48.7	nt	-0.6	2.5
CCN(CC)C(=O)C1=C(C)N(CCCN2CCCC2=O)C(=O)C(CC(=O)NCCN2CCOCC2)C1 (configuration not stated)	-4.4	nt	0.3	4.7
Cc1ccc(S(=O)(=O)N2CCN(C(=O)COC(=O)c3ccccc3Cl)CC2)c(C)c1	-7.1	nt	-0.3	-5.0
O=c1ccn([C@@H]2O[C@H](CNCc3ccccc3OCc3ccc(Cl)cc3Cl)[C@@H](O)[C@H]2O)c(=O)[nH]1	-18.3	nt	0.0	-3.3
COc1ccc(NC(=O)N(C)C[C@@H]2OCc3cnnn3CCCC(=O)N([C@H](C)CO)C[C@@H]2C)c(OC)c1	-14.5&3.7	nt	0.2	4.0
COc1ccc(/C=C/C(=O)Nc2ccccc2C(N)=O)cc1S(=O)(=O)N1CCOCC1	9.6	nt	-3.5	-1.1
Cc1ccc(S(=O)(=O)N2CCOCC2)cc1C(=O)Nc1ccc(N2CCCCCC2)cc1	-12.1	nt	4.9	-28.8
Brc1cnc(OCc2ccccc2)nc1OCc1ccccc1	-22.1	nt	-0.5	-1.2
CC(C)Nc1nnc(SCC(=O)N2CCN(C(=O)c3ccco3)CC2)s1	-14.6	nt	-2.9	1.8
O=C(COC(=O)COc1ccc(Br)cc1)Nc1ccc2c(c1)OCCO2	1.9	nt	1.1	5.6

# Not all compounds are listed (hit frequency here may not be typical).
